Bioassay records: PubChem BioAssay, ICCB-Longwood Screening Facility, Harvard Medical School
Ba CapD inh = CapD enzyme inhibition; actives 0.23% (n = 140,000); purified CapD enzyme, fluorescence intensity read-out; hits give low values; some hits fall short of the stated cut; z-score (test concentration not listed); AID 492967;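 active means z-score under -4 in either of two replicates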;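 further: stock transfer was 100 nL into about 40 µL; score is relative to mean and spread of the plate; one replicate is shown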
AID504770 = E. coli YBA685 growth inhibition, screen for V. cholerae RctB inhibitors; actives 0.27% (n = 130,000); AID 504770; E. coli YBA685 rctB-dependent plasmid, OD600 growth, 3 h; hits give low values; z-score (test concentration not listed);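 active means z-score under -2 on both plates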;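 further: wells of about 30 µL received 100 nL stock; score is relative to mean and SD of the test wells; the first replicate is given; strong numbers were not always called active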
* = called active by the depositor; nt = no result given; & = joins results of further samples. Outcome played no part in choosing rows; about 0.37% have a hit in one of these screens.

SMILES	Ba CapD inh	AID504770
COC(=O)c1ccc(C(=O)OC)c(NC(=S)N2CC(C)CC(C)C2)c1 (configuration not stated)	-0.19	-0.2
CC(=O)c1sc(SCc2ccc(Cl)cc2)c2c1CC(C)(C)CC2=O	0.365	nt
CC(C)(C)c1ccc(CNC(=O)C2CCCN2S(=O)(=O)c2ccccc2)cc1 (configuration not stated)	-0.625	2.05
CCNCC(O)COc1cc(C)c(Cl)c(C)c1 (configuration not stated)	0.06	-0.9
O=C(NCC(=O)N1CCCC1)c1ccc(Br)cc1	nt	-1.35
CC(=O)OCc1ccc(/C=N/NC(=O)c2ccc(OC(F)(F)F)cc2)o1	-0.515	nt
COCc1c(C(=O)Oc2ccc(-n3cnnn3)cc2)sc2cccc(F)c12	nt	-0.75
Cc1ccc2cc(F)ccc2c1	-0.47	nt
CC/C=N/NC(=O)C1CCN(S(=O)(=O)c2ccc(Cl)cc2)CC1	-0.47	nt
COc1ccc(-c2nn(C)c(=O)c3ccccc23)cc1CNC(=O)NC1CCCCC1	-0.095	-0.1
COc1ccc(C2c3cccn3CCN2S(=O)(=O)c2ccc(NC(C)=O)cc2)cc1OC (configuration not stated)	nt	-1.3
CCCCOc1ccc(C2CC(=O)C3=C(C2)c2c(ccc4ccccc24)NC3c2ccc(N(C)C)cc2)cc1 (configuration not stated)	1.9	nt
Clc1ccc(-c2[nH]c(-c3cccc(C#Cc4ccccc4)c3)nc2-c2ccccc2)cc1	-0.14	nt
COc1ccc(C(=O)NNC(=O)c2ccc([N+](=O)[O-])o2)cc1	-1.57	nt
CCOC(=O)c1sc(-c2ccccc2)nc1CSc1nnc(SC)s1	-0.285	-0.05
COc1cccc(NC(=O)c2cc(Cl)nnc2Cl)c1	-0.435	0.95
COCCN(CCOC)Cc1c(O)ccc2c3c(c(=O)oc12)CCC3	44.2	nt
O=C(Cn1c2ccccc2c(=O)c2cc(Cl)ccc21)Nc1ccc(C(F)(F)F)cc1	0.9	nt
O=C(OCC(=O)c1c[nH]c2ccccc12)c1cccs1	nt	-0.5
COc1ccccc1/C=C1\C(=O)Nc2ccccc21	-0.31	-0.75
CCc1ccc(Sc2cc(C(=O)NC3CC3)c3ccccc3n2)cc1	0.315	1.45
O=Cc1cc2cccc3c2n(c1=O)CC3	2.33	nt
COc1ccc(OC(=O)Nc2csc(Cc3ccsc3)n2)cc1	0.36	0.6
O=c1cc(C(F)(F)F)[nH]c2c(OC(F)(F)F)cccc12	57.6	0.25
CCOC(=O)c1sc(=S)n(-c2ccccc2OC)c1N	-0.1	nt
CCC(=O)Nc1ccc2[nH]c(C)cc2c1	-0.135	nt
O=C(Nc1nc2c(cc3c4c(cccc42)CC3)s1)C1CC1	19.2	nt
CCc1nc(SCC(=O)c2ccc(O)cc2O)n[nH]1	-2.02	nt
COc1ccc(S(=O)(=O)n2nccc2-c2ccc(-c3cccs3)s2)cc1OC	24.8	1.8
Cc1nnc(NC(=O)c2ccccc2Br)s1	-0.18	-0.25
Cc1cc(C)c(-n2nnnc2SCC(=O)C(C)(C)C)c(C)c1	0.15	0.1
COc1ccc(NC(=O)c2cc3nc(-c4ccc5c(c4)OCO5)cc(C(F)(F)F)n3n2)cc1OC	0.275	nt
CN(C)C(=O)c1c(NC(=O)c2ccccc2)sc2c1CCC2	0.055	-0.1
COc1cc(/C=N/NC(N)=O)cc(Br)c1OC	nt	0.35
OCC(O)Cn1c2ccccc2c2ccccc21 (configuration not stated)	22.8	nt
CCOC(=O)c1sc2nc(CC(=O)OC)nc(NCC(=O)OC)c2c1C	15.9	0
COc1ccc(OC)c(C2C(N3C(=O)c4c(Cl)c(Cl)c(Cl)c(Cl)c4C3=O)C(=O)N2c2ccc(Br)c(C)c2)c1 (configuration not stated)	-0.3	nt
CCOC(=O)c1c(C)oc(NC(=O)c2nn(Cc3ccccc3)c(=O)c3ccccc23)c1C#N	nt	1.8
Fc1ccccc1Nc1nc2nonc2n2nnnc12	16	nt
CC(C)(C)n1nnnc1C(c1cccs1)N1CCCc2ccccc21 (configuration not stated)	nt	-0.45

Among those listed so far, these contain an aryl methoxy group.
SMILES	Ba CapD inh	AID504770
COc1ccc(-c2nn(C)c(=O)c3ccccc23)cc1CNC(=O)NC1CCCCC1	-0.095	-0.1
COc1ccc(C2c3cccn3CCN2S(=O)(=O)c2ccc(NC(C)=O)cc2)cc1OC (configuration not stated)	nt	-1.3
COc1ccc(C(=O)NNC(=O)c2ccc([N+](=O)[O-])o2)cc1	-1.57	nt
COc1cccc(NC(=O)c2cc(Cl)nnc2Cl)c1	-0.435	0.95
COc1ccccc1/C=C1\C(=O)Nc2ccccc21	-0.31	-0.75
COc1ccc(OC(=O)Nc2csc(Cc3ccsc3)n2)cc1	0.36	0.6
CCOC(=O)c1sc(=S)n(-c2ccccc2OC)c1N	-0.1	nt
COc1ccc(S(=O)(=O)n2nccc2-c2ccc(-c3cccs3)s2)cc1OC	24.8	1.8
COc1ccc(NC(=O)c2cc3nc(-c4ccc5c(c4)OCO5)cc(C(F)(F)F)n3n2)cc1OC	0.275	nt
COc1cc(/C=N/NC(N)=O)cc(Br)c1OC	nt	0.35
COc1ccc(OC)c(C2C(N3C(=O)c4c(Cl)c(Cl)c(Cl)c(Cl)c4C3=O)C(=O)N2c2ccc(Br)c(C)c2)c1 (configuration not stated)	-0.3	nt

The listing picks up with the 3 entries that preceded the break.
SMILES	Ba CapD inh	AID504770
CCOC(=O)c1c(C)oc(NC(=O)c2nn(Cc3ccccc3)c(=O)c3ccccc23)c1C#N	nt	1.8
Fc1ccccc1Nc1nc2nonc2n2nnnc12	16	nt
CC(C)(C)n1nnnc1C(c1cccs1)N1CCCc2ccccc21 (configuration not stated)	nt	-0.45
Cc1ccc(-c2noc(CN(Cc3ccco3)S(C)(=O)=O)n2)cc1	-0.155	0.65
O=C(C(=C1NCCN1)n1ccnc1)c1ccc(Cl)cc1	0.04	1.95
COC(=O)CSc1nnc2c3ccccc3n(CCc3ccccc3)c2n1	-0.45	1.85
CCN(Cc1ccccc1)C(=O)Cn1c(SCc2ccc(F)cc2)nc2cccnc21	108	0.65
CN(C)c1ccc(Nc2ncnc3ccc(I)cc23)cc1	-0.275	1.55
CC(C)(C)NCCOc1ccc2ccccc2c1	nt	0.8
CCN(CC)S(=O)(=O)c1ccc(-c2ccc(C3N=C(N)Nc4nc5ccccc5n43)o2)cc1 (configuration not stated)	nt	-0.35
CCOC(=O)c1cc(/C(C)=N/OC(=O)c2ccccc2)on1	-0.235	-1.3
COc1cc(/C=N/NC(=O)Cc2csc(-c3ccccc3)n2)cc(OC)c1	0.44	nt
CC1=C(C#N)C(c2cccc(Oc3ccccc3)c2)C2=C(CCCC2=O)N1 (configuration not stated)	nt	-0.15
O=C(Cn1ncc2c3ccccc3n(Cc3ccccc3)c2c1=O)NC1CCCC1	0.335	0.8
CCCCCC#CCCOC(=O)NNC(=O)/C=C/c1ccc(F)cc1Cl	9.19	nt
CC(C)NC(=O)c1nc2ccccc2s1	nt	-0.4
COC(=O)c1cc(OCC(=O)N2CC(C)CC(C)C2)cc(C(=O)OC)c1 (configuration not stated)	nt	0.35
CCCn1c(-c2nonc2N)nc2ccccc21	0.075	-0.6
c1ccc(CCNc2ccccc2)cc1	nt	-1.05
O=C(c1ccc2c(c1)[nH]c(=S)n1c3ccccc3nc21)N1CCN(c2ccccn2)CC1	0.315	nt
O=C1Cc2ccccc2C(=O)N1	nt	-2.05
O=C1c2ccccc2C(Nc2ccc3c(c2)OCCO3)N1c1ccccn1 (configuration not stated)	-1.5	0.05
COc1cc(OC)c(-c2nc(-c3ccccc3)c(-c3cc([N+](=O)[O-])ccc3OC)[nH]2)cc1OC	1.41	nt
COC(=O)c1ccc(COC(=O)c2ccc3c(=O)n4c(nc3c2)CCCCC4)o1	nt	-0.5
CCCCN(Cc1cc2cc(OC)ccc2[nH]c1=O)S(C)(=O)=O	104	-0.55
c1ccc(Cn2c(SCc3nc4ccccc4s3)nnc2C2CC2)cc1	nt	-0.45
CCc1ccc(NC(=O)C(C)Sc2nnc(-c3ccccc3)o2)cc1 (configuration not stated)	nt	0.5
CCOc1ccccc1C1CC(=O)NC(C)=C1C(=O)OCC1CCCCC1 (configuration not stated)	-0.125	-0.25
COc1ccc(/C=N/NC(=O)c2nnn(-c3nonc3N)c2C)cc1COc1ccc(F)cc1F	2.67	0.3
CC(=O)N1CCN(S(=O)(=O)c2ccc(C)cc2)C1C(C)C (configuration not stated)	nt	0.9
OC(CNCCNc1ncccc1C(F)(F)F)Cn1ccc2ccccc21 (configuration not stated)	0.91	0.3
O=[N+]([O-])c1ccc(-c2nc(Nc3cccc(O)c3)c3ccccc3n2)cc1	-0.895	nt
Cn1c(=O)c2cc(S(=O)(=O)NC(Cc3ccccc3)C(=O)NCc3ccco3)ccc2n(C)c1=O (configuration not stated)	0.485	0.15
Fc1ccc(C=Nc2cc(Cl)cc(Cl)c2)cc1F	-0.47	-0.05
CCN(CC)CCNC(=O)c1sc2ncnc(N3CCN(c4ccccc4OC)CC3)c2c1C	0.305	nt
CC(C)NC(=O)C(Cc1ccccc1)N1C(=O)c2ccccc2C1=O (configuration not stated)	-0.05	-0.35
N#C/C(=C\NC1CCN(Cc2ccccc2)CC1)S(=O)(=O)c1ccccn1	0.095	1.1
CCOC(=O)C1=CN(Cc2ccc(F)cc2)C=C(C(=O)OCC)C1c1cc2c(cc1Br)OCO2	24.6	nt
CC(C)(C)NC(=O)c1cccc(NC(=O)c2ccco2)c1	nt	-1.7
NC(=O)C1CCN(Cc2nc3cc(C(F)(F)F)ccc3c(=O)[nH]2)CC1	nt	-0.05
CN(C)S(=O)(=O)c1ccc(N2CCNCC2)cc1	nt	-0.1
Cc1cc(I)cc(C)c1NC(=O)CSc1nnc(Cc2ccccc2)o1	0.06	1.15
Cc1cc(C)nc(SCc2nnc(SCC(=O)N3c4ccccc4Sc4ccc(Cl)cc43)o2)n1	nt	-0.65
NC(=O)COC(=O)/C=C/c1cccc(Br)c1	nt	-0.45
O=C(NC1CCN(Cc2ccc(Cl)c([N+](=O)[O-])c2)C1)OCCCl (configuration not stated)	0.57	nt
CN1CC(=O)N(CCCC(=O)O)C1=O	nt	-0.15
CCCCn1c(=S)[nH]c2ccccc21	-0.245	-0.55
O=C(O)CCCC(=O)N1CCN(c2ccc(F)cc2)CC1	0.065	0.25
COC(=O)c1ccc(CN2CCOCC2)o1	-0.85&-0.21	-0.7&-0.7
O=C1c2ccccc2C(=O)N1c1nc(-c2cccs2)cs1	-0.825	-0.55
CCN(CC)S(=O)(=O)c1ccc2oc(C(=O)NC3CCCC(C)C3C)c(C)c2c1 (configuration not stated)	0.1	-0.35
CC(N)C12CC3CC(CC(O)(C3)C1)C2 (configuration not stated)	-0.305	0.2
O=C(CSc1nnc(CNC(=O)c2ccco2)o1)c1ccccc1	0.33	-0.6
Cc1nc2ccc(C(=O)O)cc2nc1C	-1.58	-0.95
N#C/C(=C\Nc1cccc(C(F)(F)F)c1)c1ccc(Cl)cc1	-1.14	0.5
CCC(NS(=O)(=O)c1ccc(OC)cc1)C(=O)NC1CCCCC1C (configuration not stated)	0.38	-0.65
c1ccc(-c2ccc(SCc3cccnc3)nn2)nc1	nt	-1
O=C(CCN1C(=O)C2CC=CCC2C1=O)N1CCN(C(c2ccccc2)c2ccccc2)CC1 (configuration not stated)	nt	-1.1
O=C1CSC(=O)N1Cc1ccc(CN2C(=O)CSC2=O)cc1	-0.535	-0.4
O=C(NC1CCCC1)c1coc2nc3ccccc3nc12	nt	0.4
Cc1[nH]n(-c2ccccc2)c(=O)c1Sc1ccc(Cl)cc1	-0.06	-0.8
CCN(CC)c1nc2c(s1)C(=O)NCC(C)(C)C2	-0.195	-0.55
Cc1ccc(S(=O)(=O)NC(CC(=O)O)c2ccccc2)cc1 (configuration not stated)	-0.105	-0.15

Continuation.
SMILES	Ba CapD inh	AID504770
COc1cc2c(cc1NC(=O)C(C)Sc1nncn1C)oc1ccccc12 (configuration not stated)	nt	0.05
Cc1cc(=O)[nH]c(N2C(=O)c3ccccc3C2=O)n1	0.575	0.3
COC(=O)C(C)Sc1nc2ccccc2c(=O)n1-c1ccccc1 (configuration not stated)	nt	1.6
COc1ccc(CN=Cc2c(CSc3ccc(C)cc3)[nH]n(-c3nc4ccccc4s3)c2=O)cc1	-0.12	nt
N#Cc1c(NC(=O)c2nn3c(c2Br)NC(c2ccco2)CC3C(F)(F)F)sc2c1CCCC2 (configuration not stated)	1.34	nt
NNC(=O)CC12CC3CC(CC(C3)C1)C2	0.975	-1.4
CC1(C)CCCN(C(=O)CNC(=O)c2cccnc2)C1	0.21	nt
Brc1ccc2c3c(cccc13)CC2	-0.295	nt
CC(=O)N1CC(=O)Nc2ccccc21	-0.05	1.05
O=C(NC1CCCCC1)N(Cc1ccccc1)Cc1ccco1	-0.41	-0.65
CC(C)NC(=O)NC(=O)CN1CCCC1	nt	0.2
O=c1[nH]c2ccccc2nc1Cc1cc2c(cc1Br)OCO2	0.21	nt
CCOC(=O)c1ccc(-n2c(=S)sc3c2nc(SCC(=O)Nc2ccc(N(C)C)cc2)n2c4ccccc4nc32)cc1	-0.14	nt
O=C(Nc1ccccc1)C(/C=N/O)C(=O)Nc1ccccc1	-0.21	-0.6
COC(=O)c1ccc(COC(=O)c2cc(S(=O)(=O)N(C)C)ccc2N2CCCC2)o1	nt	2.5
O=C(Nc1nccs1)C1COc2ccccc2O1 (configuration not stated)	nt	-0.45
Clc1ccc(CNc2ccccn2)cc1	nt	-2.3
CC(C)(C)C(=O)NC1CCN(CC(=O)N2CCCCCC2)CC1	nt	0.6
Cc1ccc(CC(C#N)Sc2nnc(C3COc4ccccc4O3)n2C)cc1 (configuration not stated)	nt	-1.25
COC(=O)CSc1ccc(C#N)c(SCC(=O)OC)c1	7.38	0.95
